GIV-Gai inh: inhibitors of GIV peptide binding to Galpha-i3, primary screen, biochemical, fluorescence polarization, FITC-GIV GBA peptide, rat Galphai3; 90 min; hits give low values; scaled: aluminum fluoride 0%, vehicle 100%; percent of control (FP), % (no concentration beside the values); actives 0.42% (n = 210,000); AID 1224905, 2016;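 active = replicate mean at 85% of control or lower, very high polarization wells dropped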;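 also: wells of about 15 µL received 100 nL stock; the first replicate is given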
Target sequence (P08753 whole entry, looked up): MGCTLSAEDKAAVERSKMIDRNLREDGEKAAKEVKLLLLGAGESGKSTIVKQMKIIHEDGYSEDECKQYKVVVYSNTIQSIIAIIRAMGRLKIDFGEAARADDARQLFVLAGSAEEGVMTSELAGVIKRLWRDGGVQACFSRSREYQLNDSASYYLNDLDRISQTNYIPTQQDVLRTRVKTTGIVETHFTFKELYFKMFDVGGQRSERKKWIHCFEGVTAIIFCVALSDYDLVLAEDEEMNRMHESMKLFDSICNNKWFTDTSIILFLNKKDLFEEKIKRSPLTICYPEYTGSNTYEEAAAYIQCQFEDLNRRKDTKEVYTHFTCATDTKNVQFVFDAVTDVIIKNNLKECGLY
The depositor's hits bear a star. Some of the compounds tested (hit frequency here may not be typical).

For NC(=O)COc1ccc(NC(=O)c2nc(-n3cnnc3)ccc2Br)cc1 the results were GIV-Gai inh 105.
`COc1cc(-c2nc3ccccc3c(=O)n2CC(=O)Nc2ccc(F)cc2F)cc(OC)c1OC` gave GIV-Gai inh 110.
Screening CCOc1ccc(/C(O)=C2/C(=O)C(=O)N(c3ccccc3)C2c2ccccc2)cc1 (configuration not stated) returned GIV-Gai inh 103.
`Cc1nn(-c2ccc3nnc(C)n3n2)c2c1C(c1ccc(C(=O)O)cc1)CC(=O)N2` (configuration not stated) gave GIV-Gai inh 178.
Cc1cc(C)c(C)c(C2=NON3N(C(=O)C(C)C)c4ccccc4N23)c1C was read as GIV-Gai inh 102.
For Cc1ccc(N2C(=O)/C(=C\c3ccc(Br)cc3)S(=O)(=O)C2c2cccc([N+](=O)[O-])c2)cc1C (configuration not stated) the results were GIV-Gai inh 116.
For COc1cccc(NC(=O)CSc2nc3ccccc3c(=O)n2CC2CCC(C(=O)NCc3ccco3)CC2)c1 (configuration not stated) the results were GIV-Gai inh 122.
Screening CCOc1ccc(C2Oc3c(OCC)cccc3C3CC(c4cccs4)=NN32)cc1 (configuration not stated) returned GIV-Gai inh 99.
For Cc1cc(C)n(-c2nnc(C)n2/N=C/c2cc(Cl)ccc2F)n1 the results were GIV-Gai inh 106.
`O=C(c1ccccc1)c1ccc2nc(-c3ccc(F)cc3)c(-c3ccc(F)cc3)nc2c1` gave GIV-Gai inh 103.
`CC(C)NC(=O)N1CCC2(C1)C(=O)Nc1ccccc12` (configuration not stated) gave GIV-Gai inh 104.
`CCC(=O)Nc1nc2cc(NC(=O)NCCc3ccccc3)ccc2s1` gave GIV-Gai inh 100.
Cc1cc(O)c(C(c2ccccc2)N2CCN(C)CC2)c(=O)n1Cc1ccccc1 (configuration not stated) was read as GIV-Gai inh 105.
For COc1ccc(C2C(C#N)=C(N)OC3=C2C(=O)CC(C)(C)C3)c(CSc2ccccn2)c1 (configuration not stated) the results were GIV-Gai inh 121.
For Cc1cccc(N=C2c3ccccc3-c3ncccc32)c1 the results were GIV-Gai inh 107.
`CC(C)NC(=O)N1CC=C(C(=O)NC(C)(C)C)CC1` gave GIV-Gai inh 111.
For Cn1nnc2cc(-c3noc(CNC(=O)C(c4ccccc4)c4ccccc4)n3)ccc21 the results were GIV-Gai inh 99.
`Cc1[nH]nc(-c2c(C)sc(C)c2S(=O)(=O)Nc2cccc(Cl)c2)c1C` gave GIV-Gai inh 101.
For Cn1c(Cc2ccccc2)nn(C2CC(=O)C3OCC2O3)c1=S (configuration not stated) the results were GIV-Gai inh 101.
`O=C(NCC1CCCO1)c1n[nH]c2c1CCCC2` (configuration not stated) gave GIV-Gai inh 111.

Gathered by group: those above with an NH in an aromatic ring
`Cc1[nH]nc(-c2c(C)sc(C)c2S(=O)(=O)Nc2cccc(Cl)c2)c1C` gave GIV-Gai inh 101.
`O=C(NCC1CCCO1)c1n[nH]c2c1CCCC2` (configuration not stated) gave GIV-Gai inh 111.

Next compounds:
For COc1ccccc1NC(=O)Cn1cnc2sc(C(=O)Nc3cc(Cl)ccc3OC)c(C)c2c1=O the results were GIV-Gai inh 101.
c1ccc2c(c1)CCN(c1ncnc3c1CCC3)C2 was read as GIV-Gai inh 101.
For Cc1csc(-c2cc(S(=O)(=O)NC3CCCC3)c(C)n2C)n1 the results were GIV-Gai inh 102.
COc1ccc(-c2nc(-c3ccccc3)c(-c3ccccc3)[nH]2)cc1[N+](=O)[O-] was read as GIV-Gai inh 109.
Screening O=C(NCc1ccc2c(c1)OCO2)C1CCCN(c2ncc(-c3cccc(F)c3)cn2)C1 (configuration not stated) returned GIV-Gai inh 102.
For CCOc1ccc2c(c1)C(=C1SC(C(=O)OC)=C(C(=O)OC)S1)C(=S)C(C)(C)N2C(=O)COc1ccc(F)cc1 the results were GIV-Gai inh 103.
C=CCc1cc(/C=C2\C(=O)NC(=O)N(c3ccc(OC)cc3)C2=O)cc(OC)c1O was read as GIV-Gai inh 147.
Cn1ncc(NC(=O)Cc2ccc(Cl)cc2)c(N2CCCCC2)c1=O was read as GIV-Gai inh 99.
For COC(=O)C1C2c3ccccc3OC1(C)N=c1s/c(=C/c3ccc(OCc4ccccc4F)cc3)c(=O)n12 (configuration not stated) the results were GIV-Gai inh 103.
CC(=O)N=C1S/C(=C\c2cccc(F)c2)C(=O)N1c1ccc(C)c(C)c1 was read as GIV-Gai inh 111.
`O=C(Nc1nc2ccccc2s1)NC1CC(=O)N(c2ccc(F)cc2)C1` (configuration not stated) gave GIV-Gai inh 101.
Cc1ccc(C(=O)Nc2nnc(SCc3cc(=O)n4ccccc4n3)s2)cc1 was read as GIV-Gai inh 106.
`CC(C)NC(=O)CCn1c(=O)c2ccccc2n2c(SCC(=O)NCC3CCCO3)nnc12` (configuration not stated) gave GIV-Gai inh 100.
CN(c1ccc2sc(C(N)=O)cc2c1)S(C)(=O)=O was read as GIV-Gai inh 107.
Screening O=C(c1cccc(Br)c1)N1CCc2c([nH]c3ccccc23)C1c1ccc(Cl)cc1 (configuration not stated) returned GIV-Gai inh 97.
COc1ccc(NC(=O)C2CCCN(S(=O)(=O)Cc3ccccc3C)C2)c(OC)c1 (configuration not stated) was read as GIV-Gai inh 97.
Screening COc1ccc(-n2cnc3nc(C)c(C(C)=O)c(-c4ccccc4)c32)cc1 returned GIV-Gai inh 111.
`CCOC(=O)C1CCCN(C(=O)c2ccc3nc(-c4ccc(OC)c(OC)c4)c(-c4ccc(OC)c(OC)c4)nc3c2)C1` (configuration not stated) gave GIV-Gai inh 104.
Screening CCOc1ccc(Br)cc1S(=O)(=O)n1nnc2ccccc21 returned GIV-Gai inh 106.
`COc1ccc(-c2cc(Oc3cccc(C(=O)NC4CCCCC4)c3)ncn2)cc1` gave GIV-Gai inh 99.

2 records drawn at random from the list so far, as already listed:
For Cc1csc(-c2cc(S(=O)(=O)NC3CCCC3)c(C)n2C)n1 the results were GIV-Gai inh 102.
For COC(=O)C1C2c3ccccc3OC1(C)N=c1s/c(=C/c3ccc(OCc4ccccc4F)cc3)c(=O)n12 (configuration not stated) the results were GIV-Gai inh 103.

Remaining list, next part:
`Cc1ccc(-c2nnc(Sc3nc4ccccc4s3)c3ccccc23)cc1S(=O)(=O)N(C)C` gave GIV-Gai inh 104.
`Cc1cc(C)cc(NS(=O)(=O)c2cc(-c3cc(C(F)(F)F)on3)sc2C)c1` gave GIV-Gai inh 97.
For Cn1cnc2nc(SCC(=O)O)[nH]c(=O)c21 the results were GIV-Gai inh 107.
Screening Cc1cc(C)nc(Nn2c(SCc3cccc(F)c3)nc3ccccc3c2=O)n1 returned GIV-Gai inh 107.
Screening O=C(NCc1ccccn1)c1nc(Cn2c(=O)oc3ccccc32)no1 returned GIV-Gai inh 105.
For CCOc1cc(C2C(C(=O)N3CCCCC3)=C(C)NC3=C2C(=O)CC(C)(C)C3)cc(Br)c1OC (configuration not stated) the results were GIV-Gai inh 99.
O=S(=O)(c1cc(Cl)ccc1Cl)n1nnc2ccccc21 was read as GIV-Gai inh 111.
Cc1ccnc(N2CCCC(C(=O)NCCc3c[nH]c4ccc(Cl)cc34)C2)n1 (configuration not stated) was read as GIV-Gai inh 101.
For COc1cc(C2C(C(=O)OCCOc3ccccc3)=C(C)NC3=C2C(=O)CC(C)(C)C3)cc(Cl)c1O (configuration not stated) the results were GIV-Gai inh 109.
For CCC1(CC)NC(=S)N(c2ccc(C)cc2)N1 the results were GIV-Gai inh 107.
Screening COC(=O)C1=CN(Cc2ccc(OC)cc2)C=C(C(=O)OC)C1c1cc(OC)c(OC)cc1OC returned GIV-Gai inh 105.
For CC1(c2ccccc2)COC2(OC1)C(=O)N(CN1CCC(Cc3ccccc3)CC1)c1ccccc12 (configuration not stated) the results were GIV-Gai inh 110.
Screening CCc1nnc2c(Oc3cccc(OC)c3)nc3ccccc3n12 returned GIV-Gai inh 102.
`COc1cccc(-c2csc(Cc3nc(-c4cccc(C)c4)no3)n2)c1` gave GIV-Gai inh 118.
Screening CCNc1cc(Nc2ccc(Br)cc2Br)c([N+](=O)[O-])c2nonc12 returned GIV-Gai inh 116.
`CCOc1ccc(-c2noc(CSc3nc4cc5c(cc4c(=O)n3C3CC3)OCO5)n2)cc1` gave GIV-Gai inh 93.
For Fc1cccc(-c2noc(Cc3nc(-c4ccccc4Cl)cs3)n2)c1 the results were GIV-Gai inh 115.
For c1ccc(-c2nc3cc4ccccc4cc3nc2-c2ccccc2)cc1 the results were GIV-Gai inh 100.
Screening O=C(CN1C(=O)/C(=C2\SC(=S)N(C3CCS(=O)(=O)C3)C2=O)c2ccccc21)Nc1ccc(F)cc1 (configuration not stated) returned GIV-Gai inh 109.
O=C1Nc2c(S(=O)(=O)NCCO)cc(S(=O)(=O)NCCO)c3cccc1c23 was read as GIV-Gai inh 108.

Copied from the entries so far for reference:
`Cc1ccc(-c2nnc(Sc3nc4ccccc4s3)c3ccccc23)cc1S(=O)(=O)N(C)C` gave GIV-Gai inh 104.
`Cc1cc(C)cc(NS(=O)(=O)c2cc(-c3cc(C(F)(F)F)on3)sc2C)c1` gave GIV-Gai inh 97.
For Cn1cnc2nc(SCC(=O)O)[nH]c(=O)c21 the results were GIV-Gai inh 107.
Screening Cc1cc(C)nc(Nn2c(SCc3cccc(F)c3)nc3ccccc3c2=O)n1 returned GIV-Gai inh 107.

(list continues)
For CCOC(=O)C1=C(C(=O)OCC)SC(=C2C(=S)C(C)(C)N(C(C)=O)c3cc(C)ccc32)S1 the results were GIV-Gai inh 125.
`Cc1ccc(C2CC(c3cccs3)n3ncnc3N2)cc1` (configuration not stated) gave GIV-Gai inh 102.
`COc1cc(OC)c(OC)cc1/C=C1\N=C(c2cc([N+](=O)[O-])ccc2OC)OC1=O` gave GIV-Gai inh 116.
CCOc1ccc(C2C(N3C(=O)c4ccc([N+](=O)[O-])cc4C3=O)C(=O)N2c2ccc(C)c(F)c2)cc1 (configuration not stated) was read as GIV-Gai inh 109.
For O=C(CSc1nc2ccccc2s1)Nc1ccc(Cl)cc1[N+](=O)[O-] the results were GIV-Gai inh 121.
CC1(C)CC(=O)C(C(C2=C(O)CC(C)(C)CC2=O)c2ccc(Cl)cc2Cl)C(=O)C1 (configuration not stated) was read as GIV-Gai inh 123.
For O=C(CSc1nc2cc(C(=O)NCC3CCCO3)ccc2c(=O)n1Cc1ccco1)c1ccc(Br)cc1 (configuration not stated) the results were GIV-Gai inh 107.
COc1ccc(NC(=O)C2C3CCCC2C3c2ccccc2)cc1 (configuration not stated) was read as GIV-Gai inh 103.
Screening O=C(NCc1ccccc1)c1nc2nc(-c3ccc(F)cc3)cc(C(F)(F)F)n2n1 returned GIV-Gai inh 104.
CCOC(=O)C1CCN(C(=O)c2c[nH]c3ccc(S(=O)(=O)N(C)c4cc(C)ccc4C)cc3c2=O)CC1 was read as GIV-Gai inh 98.
For O=C(CC1CCCC1)Nc1cc(F)c2nc(N3CCOCC3)ccc2c1 the results were GIV-Gai inh 103.
Screening CCN(CC)C(=O)Cn1ccc2ccc(-c3nnc(C)o3)cc21 returned GIV-Gai inh 107.
`CCOC(=O)CSc1nc2sc(C(=O)OCC)c(C)c2c(=O)n1Cc1ccccc1` gave GIV-Gai inh 108.
Screening COc1ccc(NC(=O)/C(=C/c2ccc3c(c2)OCO3)NC(=O)c2ccc(Br)cc2)cc1 returned GIV-Gai inh 107.
COC(=O)c1cc(NC(=O)c2cc3nc(-c4ccc(OC)cc4)cc(C(F)(F)F)n3n2)cc(C(=O)OC)c1 was read as GIV-Gai inh 110.
COc1ccc(C2CC(c3cccs3)=NN2C(=O)CSc2nnc(CNC(=O)c3ccccc3OC)n2C)cc1 (configuration not stated) was read as GIV-Gai inh 116.
For Cc1onc(-c2cccc(Br)c2)c1C(=O)NCCN(C)C the results were GIV-Gai inh 107.
For COC(=O)c1c(N2C(N)=C(C#N)C(c3cccnc3)C3=C2CCCC3=O)sc2c1CCCCC2 (configuration not stated) the results were GIV-Gai inh 117.
`Cc1cc(C)n(-c2nc3c(c(=O)n2CC(=O)N2CCCCC2)CCC3)n1` gave GIV-Gai inh 97.
Screening COc1cc(C2Nc3cccc4cccc(c34)N2)ccc1OC(C)=O returned GIV-Gai inh 116.
C=Cc1ccc(CN2C(=O)N(c3cccc(OC)c3)S(=O)(=O)c3ccccc32)cc1 was read as GIV-Gai inh 104.
CSC1=NC(=Nc2cccc(C)c2)C2(CCCC2)N1c1ccccc1Cl was read as GIV-Gai inh 104.
Screening COc1ccccc1N1CCN(C(=O)c2sc3nc(C)nc(N4CCC(C)CC4)c3c2C)CC1 returned GIV-Gai inh 107.
CC(=O)C1=NN(c2cccc(Cl)c2)C2(S1)SC(c1ccccc1C)(c1ccccc1C)c1ccccc12 (configuration not stated) was read as GIV-Gai inh 106.

Arranged by SMILES length (highest first): part of the list above
For CCOc1cc(C2C(C(=O)N3CCCCC3)=C(C)NC3=C2C(=O)CC(C)(C)C3)cc(Br)c1OC (configuration not stated) the results were GIV-Gai inh 99.
`COc1cc(OC)c(OC)cc1/C=C1\N=C(c2cc([N+](=O)[O-])ccc2OC)OC1=O` gave GIV-Gai inh 116.
Screening Cc1cc(C)nc(Nn2c(SCc3cccc(F)c3)nc3ccccc3c2=O)n1 returned GIV-Gai inh 107.

Screening results from PubChem BioAssay.
